Env fusion inh – inhibitors of HIV Env-mediated cell fusion; HeLa-JRFL Env/CEM21 cell fusion, luciferase; inhibition, % at 12.3 µM; 1.1% of 360,000 active; AID 651610;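 active = mean replicate inhibition score of at least 50 and every replicate individually at or above 50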;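 also: 0% = plate neutral controls and 100% = maraviroc near 300 nM; one replicate is shown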
UUG fidelity – modulators of start codon recognition fidelity in yeast; S. cerevisiae UUG-firefly luciferase reporter, luminescence/redox ratio; AID 602363; activity score, % at 18.7 µM; 0.13% of 350,000 active;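 active = replicate mean at a twofold rise or more, about +100% in these data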;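 also: firefly luciferase made from a UUG start codon reports start codon fidelity; reporter light over untreated wells divided by growth signal over untreated wells; some hits fall short of that in this replicate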
* hit, by the source's call; & = joins results of further samples; [ ] = another dose, or the depositor's remark. Some of the compounds tested; the hit share may differ from the screen's.

Env fusion inh | UUG fidelity | SMILES
16.2[16.7 µM] | 12.7 | C[C@H]1CN([C@@H](C)CO)C(=O)c2cc(/C=C/c3ccccc3)cnc2O[C@@H]1CN(C)Cc1ccccc1F
48.7[16.7 µM] | 13.7 | C[C@H]1CN([C@@H](C)CO)C(=O)Cc2cc(NC(=O)Nc3ccc(F)cc3)ccc2O[C@H]1CN(C)S(=O)(=O)c1cccs1
-13.5[16.7 µM] | -8.3 | Cc1ccc(S(=O)(=O)N(C)C[C@H]2OCCCC[C@@H](C)Oc3ccc(NC(=O)Nc4ccc5c(c4)OCO5)cc3C(=O)N([C@@H](C)CO)C[C@H]2C)cc1
-6.3[16.7 µM] | 13.2 | C[C@H](CO)N1C[C@H](C)[C@@H](CN(C)Cc2cncnc2)Oc2ncc(-c3ccc(F)cc3)cc2C1=O
-6.0[16.7 µM] | -13.1 | NCCCCCCNC(=O)[C@H]1C[C@H]2C(=O)N[C@@H](Cc3ccccc3)C(=O)N2[C@H]1c1cccc(OCCO)c1
4.1[16.7 µM] | 7.2 | C[C@H](CO)N1C[C@H](C)[C@H](CN(C)C(=O)Nc2ccc3c(c2)OCO3)OCCCC[C@H](C)Oc2ccc(NC(=O)Nc3ccccc3)cc2C1=O
-13.0[16.7 µM] | 9.0 | C[C@H]1CN([C@@H](C)CO)C(=O)c2cc(C#Cc3ccncc3)cnc2O[C@@H]1CN(C)C(=O)c1ccccc1F
-10.8[16.7 µM] | 2.1 | O=C(Nc1ccc(F)cc1)N[C@@H]1C=C[C@H](CC(=O)N2CCCCC2)O[C@H]1CO
11.8[16.7 µM] | 5.0 | COc1ccccc1NC(=O)N[C@H]1CC[C@@H](CCn2cc(-c3cccnc3)nn2)O[C@@H]1CO
14.2[16.7 µM] | -3.5 | CCCN(C)C[C@H]1OCc2cnnn2CCCC(=O)N([C@@H](C)CO)C[C@@H]1C
6.2[16.7 µM] | 15.0 | COCCNC(=O)C[C@@H]1C[C@H]2c3cc(NC(=O)c4ccc5c(c4)OCO5)ccc3O[C@H]2[C@H](CO)O1
12.0[16.7 µM] | -0.2 | C[C@@H]1CN([C@@H](C)CO)C(=O)c2cc(NS(=O)(=O)c3ccc(Cl)cc3)ccc2O[C@H]1CN(C)C(=O)Nc1ccccc1
15.2[16.7 µM] | -12.4 | O=C(CCN1CCCCC1)NCC[C@H]1CC[C@H](NS(=O)(=O)c2cccc(F)c2)[C@@H](CO)O1
-4.0[16.7 µM] | 2.8 | O=C(CCN1CCCCC1)N[C@@H]1CC[C@H](CCNS(=O)(=O)c2ccc(Cl)cc2)O[C@@H]1CO
4.5[16.7 µM] | -3.9 | COc1ccc(S(=O)(=O)Nc2ccc3c(c2)CC(=O)N([C@H](C)CO)C[C@H](C)[C@@H](CN(C)S(=O)(=O)c2ccc(Cl)cc2)O3)cc1
23.5[16.7 µM] | -3.1 | C[C@H]1CN([C@@H](C)CO)S(=O)(=O)c2ccc(C#CCC3CCCC3)cc2O[C@H]1CN(C)C(=O)CC1CC1
-19.5[16.7 µM] | -5.8 | C[C@H](CO)N1C[C@H](C)[C@H](CN(C)Cc2ccc(Oc3ccccc3)cc2)Oc2ccc(NC(=O)C3CCCCC3)cc2C1=O
8.3[16.7 µM] | -11.1 | COC(=O)C[C@H]1CC[C@H](NS(=O)(=O)c2ccc(OC)cc2)[C@@H](CO)O1
-15.2[16.7 µM] | 0.8 | COc1ccc(S(=O)(=O)N(C)C[C@@H]2Oc3c(NC(=O)c4nc5ccccc5s4)cccc3C(=O)N([C@H](C)CO)C[C@H]2C)cc1
-18.3[16.7 µM] | -6.9 | O=C(C[C@@H]1C[C@@H]2c3cc(NC(=O)CC4CC4)ccc3O[C@@H]2[C@H](CO)O1)NCc1ccncc1
-8.5[16.7 µM] | 22.1 | C[C@H]1CCCCO[C@@H](CN(C)C)[C@@H](C)CN([C@@H](C)CO)C(=O)c2cc(NS(=O)(=O)c3ccc(F)cc3)ccc2O1
60.0*[16.7 µM] | 13.4 | C[C@H]1CCCCO[C@@H](CN(C)Cc2ccc3c(c2)OCO3)[C@@H](C)CN([C@@H](C)CO)C(=O)c2cc(NC(=O)Nc3ccccc3)ccc2O1
13.2[16.7 µM] | -3.6 | C[C@@H]1CN([C@H](C)CO)C(=O)c2cc(C3=CCCCC3)cnc2O[C@H]1CN(C)Cc1ccccc1F
-3.4[16.7 µM] | -10.9 | Cc1noc(C)c1NC(=O)Nc1ccc2c(c1)CC(=O)N([C@H](C)CO)C[C@@H](C)[C@H](CN(C)C(=O)NC1CCCCC1)O2
21.7[16.7 µM] | 10.4 | C[C@@H]1CN([C@H](C)CO)C(=O)c2cc(NC(=O)Nc3cccc4ccccc34)ccc2O[C@@H](C)CCCCO[C@H]1CN(C)C(=O)NC1CCCCC1
0.1[16.7 µM] | -7.2 | O=C(Cc1ccncc1)NCC[C@@H]1CC[C@@H](NC(=O)Nc2cccc(F)c2)[C@@H](CO)O1
2.8[16.7 µM] | -2.3 | O=C(C[C@@H]1CC[C@H]2[C@@H](COC[C@H](O)CN2C(=O)Nc2cccc(Cl)c2)O1)NCCCN1CCOCC1
71.4*[16.7 µM] | -17.4 | C[C@H]1CN([C@@H](C)CO)C(=O)Cc2cc(NC(=O)Nc3cccc4ccccc34)ccc2O[C@H]1CN(C)S(=O)(=O)c1ccccc1
10.1[16.7 µM] | -1.2 | CN1C(=O)c2cc(NC(=O)c3cscn3)ccc2OC[C@H]2O[C@H](CC(=O)N3CCCCC3)CC[C@@H]21
-0.9[16.7 µM] | -32.9 | CS(=O)(=O)Nc1ccc2c(c1)[C@H]1C[C@H](CC(=O)NCCN3CCCCC3)O[C@@H](CO)[C@H]1O2
11.7[16.7 µM] | -6.0 | C[C@H](CO)N1C[C@H](C)[C@@H](CN(C)Cc2ccncc2)Oc2ccc(NC(=O)CCCN(C)C)cc2C1=O
-0.6[16.7 µM] | 5.6 | CC(C)CC#Cc1ccc2c(c1)O[C@@H](CN(C)C(=O)c1cccnc1)[C@H](C)CN([C@H](C)CO)S2(=O)=O
16.7[16.7 µM] | -0.1 | CCNC(=O)C[C@H]1CC[C@@H]2[C@H](COc3ccc(NC(=O)Nc4cccc(OC)c4)cc3C(=O)N2C)O1
-0.1[16.7 µM] | -4.5 | COCC(=O)N(C)C[C@@H]1Oc2cc(-c3cncnc3)ccc2S(=O)(=O)N([C@H](C)CO)C[C@@H]1C
-0.4[16.7 µM] | -2.3 | Cc1noc(C)c1S(=O)(=O)Nc1ccc2c(c1)C(=O)N([C@H](C)CO)C[C@H](C)[C@H](CN(C)Cc1ccncc1)OCCCC[C@@H](C)O2
21.5[16.7 µM] | 3.6 | C[C@@H]1CCCCO[C@H](CN(C)S(C)(=O)=O)[C@@H](C)CN([C@H](C)CO)C(=O)c2cc(NS(=O)(=O)c3ccc(F)cc3)ccc2O1
5.0[16.7 µM] | -16.2 | C[C@@H]1CN([C@@H](C)CO)C(=O)Cc2cc(NC(=O)Nc3ccc(C(F)(F)F)cc3)ccc2O[C@H]1CN(C)C(=O)Nc1ccc(F)cc1
4.1&-26.2[16.7 µM] | 42.4&19.9 | C[C@H](CO)N1C[C@H](C)[C@H](CN(C)Cc2ccc3c(c2)OCO3)OCCCC[C@H](C)Oc2ccc(NS(=O)(=O)c3cccs3)cc2C1=O
3.9[16.7 µM] | -9.3 | COc1ccc(-c2ccc3c(c2)O[C@H](CN(C)Cc2cccnc2)[C@H](C)CN([C@@H](C)CO)S3(=O)=O)cc1
-12.9[16.7 µM] | -5.6 | C[C@H]1CN([C@@H](C)CO)C(=O)c2cccc(NC(=O)C3CCOCC3)c2O[C@H]1CN(C)Cc1ccncc1
6.0[16.7 µM] | -18.7 | C[C@@H]1CCCCO[C@@H](CN(C)C(=O)Nc2ccccc2)[C@@H](C)CN([C@H](C)CO)C(=O)c2cc(NS(C)(=O)=O)ccc2O1
16.1[16.7 µM] | -8.7 | C[C@@H]1CN([C@@H](C)CO)C(=O)c2cc(NS(C)(=O)=O)ccc2O[C@@H](C)CCCCO[C@@H]1CN(C)C(=O)Nc1ccccc1
-8.8[16.7 µM] | 8.4 | CCCN1C[C@@H](C)[C@@H](OC)CN(C)C(=O)c2cc(NC(=O)c3ccc(F)cc3)ccc2OC[C@@H]1C
-4.6[16.7 µM] | 9.1 | Cc1noc(C)c1NC(=O)N(C)C[C@H]1Oc2ccc(NC(=O)CCN3CCOCC3)cc2C(=O)N([C@@H](C)CO)C[C@H]1C
-22.1[16.7 µM] | -4.9 | C[C@@H]1CCCCO[C@@H](CN(C)C(=O)Nc2ccc(C(F)(F)F)cc2)[C@@H](C)CN([C@H](C)CO)C(=O)c2cc(NS(=O)(=O)c3ccccc3)ccc2O1
-20.7[16.7 µM] | 4.9 | COc1ccc(CN(C)C[C@H]2OCCCC[C@@H](C)Oc3ccc(NS(=O)(=O)c4ccccc4)cc3C(=O)N([C@H](C)CO)C[C@@H]2C)cc1
-13.7[16.7 µM] | -2.3 | CC(C)c1cn(CC[C@H]2CC[C@H](NS(=O)(=O)c3ccc(Cl)cc3)[C@@H](CO)O2)nn1
5.8[16.7 µM] | -12.6 | C[C@H](CO)N1C[C@H](C)[C@H](CN(C)Cc2cccnc2)Oc2cc(/C=C/c3ccccc3)ccc2S1(=O)=O

Single records, as listed above:
C[C@H](CO)N1C[C@H](C)[C@H](CN(C)Cc2ccc3c(c2)OCO3)OCCCC[C@H](C)Oc2ccc(NS(=O)(=O)c3cccs3)cc2C1=O is listed with Env fusion inh = 4.1&-26.2[16.7 µM]; UUG fidelity = 42.4&19.9
C[C@@H]1CCCCO[C@@H](CN(C)C(=O)Nc2ccccc2)[C@@H](C)CN([C@H](C)CO)C(=O)c2cc(NS(C)(=O)=O)ccc2O1 is listed with Env fusion inh = 6.0[16.7 µM]; UUG fidelity = -18.7
C[C@H]1CN([C@@H](C)CO)C(=O)c2cccc(NC(=O)C3CCOCC3)c2O[C@H]1CN(C)Cc1ccncc1 is listed with Env fusion inh = -12.9[16.7 µM]; UUG fidelity = -5.6

(further entries)
Env fusion inh | UUG fidelity | SMILES
-5.3[16.7 µM] | 2.5 | CC(C)NC(=O)N(C)C[C@H]1Oc2ccc(NC(=O)NC3CCCCC3)cc2CC(=O)N([C@H](C)CO)C[C@@H]1C
-21.4[16.7 µM] | 4.9 | O=C(C[C@H]1CC[C@@H](NC(=O)C2CC2)[C@H](CO)O1)NCC1CC1
21.0[16.7 µM] | -6.7 | O=C(C[C@@H]1CC[C@H](NC(=O)Nc2ccccc2F)[C@@H](CO)O1)NCc1ccc(Cl)cc1
5.8[16.7 µM] | -3.3 | C[C@@H]1CN([C@@H](C)CO)C(=O)Cc2cc(NC(=O)Cn3cnnn3)ccc2O[C@@H]1CN(C)C(=O)Nc1cccc2ccccc12
11.9[16.7 µM] | 2.0 | O=C(NCC[C@@H]1CC[C@@H](NC(=O)C2CCC2)[C@@H](CO)O1)c1cc(Cl)cc(Cl)c1
-1.8[16.7 µM] | -7.8 | C[C@H](CO)N1C[C@H](C)[C@@H](CN(C)C(=O)CN(C)C)Oc2cc(C3=CCCC3)ccc2S1(=O)=O
-47.0[16.7 µM] | -4.0 | O=C(O)C1=C[C@@H](c2ccc3c(c2)Cc2ccccc2-3)C[C@@H](OCc2ccc(CO)cc2)O1
-12.3[16.7 µM] | -11.9 | CCCC#Cc1ccc2c(c1)O[C@H](CN(C)CC1CC1)[C@H](C)CN([C@H](C)CO)S2(=O)=O
41.7[16.7 µM] | 14.8 | C[C@@H]1CCCCO[C@H](CN(C)C(=O)Nc2ccc(C(F)(F)F)cc2)[C@H](C)CN([C@@H](C)CO)C(=O)c2cc(NS(=O)(=O)c3ccccc3)ccc2O1
-22.2[16.7 µM] | 0.5 | C[C@@H]1CN([C@@H](C)CO)C(=O)Cc2cc(NC(=O)CCC(F)(F)F)ccc2O[C@@H]1CN(C)Cc1ccc(Cl)c(Cl)c1
9.7[16.7 µM] | -13.0 | C[C@@H](O)C#Cc1ccc2c(c1)O[C@@H](CN(C)CC1CC1)[C@@H](C)CN([C@@H](C)CO)S2(=O)=O
33.0[16.7 µM] | 4.0 | COc1ccc(S(=O)(=O)Nc2ccc3c(c2)C(=O)N([C@@H](C)CO)C[C@H](C)[C@@H](CN(C)C(=O)Nc2cccc4ccccc24)OCCCC[C@H](C)O3)cc1
21.1[16.7 µM] | 4.0 | C[C@H](CO)N1C[C@H](C)[C@@H](CN(C)C(=O)Nc2cccc3ccccc23)Oc2ccc(NC(=O)CCC(F)(F)F)cc2CC1=O
9.9[16.7 µM] | 5.5 | CCCNC(=O)N1C[C@@H](C)[C@H](OC)CN(C)C(=O)c2cc(NS(=O)(=O)CC)ccc2OC[C@H]1C
-19.6[16.7 µM] | -1.4 | C[C@H](CO)N1C[C@H](C)[C@H](CN(C)C)Oc2ncc(C#Cc3cccnc3)cc2C1=O
18.8[16.7 µM] | 6.9 | Cc1ccc(S(=O)(=O)N(C)C[C@@H]2Oc3ncc(C#CC4(O)CCCC4)cc3C(=O)N([C@@H](C)CO)C[C@@H]2C)cc1
-21.2[16.7 µM] | 6.3 | CC(C)NC(=O)N(C)C[C@@H]1OCCCC[C@@H](C)Oc2ccc(NC(=O)CCCCCC(=O)Nc3ccccc3N)cc2C(=O)N([C@H](C)CO)C[C@@H]1C
-15.3[16.7 µM] | -2.7 | Cc1ccc(S(=O)(=O)N(C)C[C@@H]2Oc3ccc(NS(=O)(=O)c4cccs4)cc3CC(=O)N([C@@H](C)CO)C[C@H]2C)cc1
-0.7[16.7 µM] | 4.3 | C[C@@H]1CN([C@@H](C)CO)C(=O)c2cc(NC(=O)c3ccncc3)ccc2O[C@@H](C)CCCCO[C@@H]1CN(C)C(=O)NC1CCCCC1
2.6[16.7 µM] | 3.7 | N#C[C@H]1[C@H](c2ccc(-c3cccnc3)cc2)[C@@H](CO)N1C(=O)C1CCOCC1
26.8[16.7 µM] | 15.7 | CC(=O)N(C)C[C@@H]1Oc2cc(C#Cc3ccccc3)ccc2S(=O)(=O)N([C@@H](C)CO)C[C@H]1C

Source: PubChem
